Cruzain Triton – inhibitors of Trypanosoma cruzi cruzain with detergent. P25779. purified cruzain, Z-FR-AMC fluorescence, 0.01% Triton. Potency, µM, for inactives: max response, negative = inhibition, most hits filed as inhibitors. 0.43% of 200,000 active; active means well fitted curve in the direction sought with a large enough effect; inconclusive means small, poorly fitted or top-dose-only effect, or another doubt; inactive means no such curve, though single readings can be large; an effect the other way counts as inactive or inconclusive;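 further: plate controls were neutral wells for no effect and buffer without enzyme for full effect; nearly all actives have a fitted effect of over 40% in size; top concentration of the series not given in the record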
Target sequence (P25779 123-467 limits assumed): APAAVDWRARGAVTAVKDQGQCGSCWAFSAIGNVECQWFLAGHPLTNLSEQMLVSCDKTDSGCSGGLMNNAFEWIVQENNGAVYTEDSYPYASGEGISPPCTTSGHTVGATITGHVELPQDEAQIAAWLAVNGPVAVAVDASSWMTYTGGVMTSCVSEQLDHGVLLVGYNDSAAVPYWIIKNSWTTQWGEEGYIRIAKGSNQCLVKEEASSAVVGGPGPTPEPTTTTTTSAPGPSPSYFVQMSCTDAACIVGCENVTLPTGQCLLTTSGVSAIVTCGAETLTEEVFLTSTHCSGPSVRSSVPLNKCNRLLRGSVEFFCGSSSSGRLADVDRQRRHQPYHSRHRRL
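15 min RT preincubation of 1.5 nM cruzain with compound, then 2 uM Z-FR-AMC added; kinetic AMC fluorescence, 60 s delta. Triton X-100 0.01%, pH 5.5.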
SARS PLP yeast – SARS-CoV PLP inhibition in yeast | S. cerevisiae expressing SARS-CoV PLpro, growth rescue; control for the full effect not named in the record | Potency, µM (highest dose often 32.9 µM), inactives show at the highest dose activity, positive = growth rescue | 0.19% of 330,000 active; further: 0% is about no effect; nearly all actives have a fitted effect of over 55% in size; growth read by luminescence after 48 h
RE007 growth inh – less growth of the S. pombe RE007 Vpr strain; 0.21% of 360,000 active; S. pombe RE007 Vpr strain, BacTiter-Glo ATP luminescence, 24 h; control for the full effect not named in the record; Potency, µM (titrated, usually from 92.2 µM), inactives show at the highest dose activity change, negative = less growth; active = well fitted falling curve with a large enough effect; inconclusive = small, poorly fitted or top-dose-only effect; inactive = no such curve, though single readings can be large or run the other way;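 further: on the % scale 0 is the no-effect control and ±100 the full control effect; nearly all actives have a fitted effect of over 50% in size; the assay follows cell death caused by Vpr and the record does not say whether a fall means rescue or toxicity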
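Fission yeast strain RE007, carrying one chromosomally integrated HIV-1 vpr copy, was seeded at OD 0.01 in PMG+AL medium with 23 nL pinned compound. After 24 h at 30 °C and 99% humidity, viability was read by BacTiter-Glo luminescence.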
NS1 inh – influenza NS1 inhibition | S. cerevisiae slowed by influenza A NS1, growth recovery by OD600 | 0.4% of 270,000 active | Potency, µM (doses to about 46.1 µM), for the others: at the highest dose activity, positive = more growth; further: actives are rising curves; nearly all actives have a fitted effect of over 50% in size
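OD600 was taken as the measure of yeast growth restored by compound in an NS1-expressing S. cerevisiae strain. Cells had been washed out of glucose medium and diluted 1:100 into galactose -URA medium, pH 6.0.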
Cruzain noTriton – blocks cruzain activity in detergent-free assay | P25779 | purified cruzain, Z-FR-AMC fluorescence, no detergent | Potency, µM, for the others: max response, negative = inhibition, hits mostly inhibitors | 2.3% of 200,000 active | AID 1476; active means well fitted curve in the direction sought with a large enough effect; inconclusive means small, poorly fitted or top-dose-only effect, or another doubt; inactive means no such curve, though single readings can be large; an effect the other way counts as inactive or inconclusive;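 further: plate controls were enzyme without inhibitor for no effect and buffer without enzyme for full effect; nearly all actives have a fitted effect of over 40% in size; top concentration of the series not given in the record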
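Detergent-free condition (0.00005% Triton X-100) in acetate buffer pH 5.5 with DTT. 1.5 nM enzyme and compound were pre-mixed 15 min, then 2 uM Z-FR-AMC substrate added; reaction progress from fluorescence change between first and third reads (60 s).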
Lassa entry inh – Lassa virus entry inhibition. Potency, µM (top dose mostly 37.9 µM), without a hit: at the highest dose activity change, negative = inhibition, usual class: inhibitors. Lassa virus pseudotype entry inhibition, cell reporter; control for the full effect not named in the record. 1.2% of 300,000 active; active means well fitted inhibition curve with a large enough effect; inconclusive means small, poorly fitted or top-dose-only effect, or effect the other way; inactive means flat fitted curve, though single readings scatter; tested in HEK293 cells; further: on the % scale 0 is the no-effect control and ±100 the full control effect; nearly all actives have a fitted effect of over 50% in size; luciferase read-out
StopGo reporter – lowers the luciferase signal of an FMDV 2A StopGo reporter. Potency, µM (doses to about 57.9 µM), without a hit: at the highest dose signal change, negative = less light. human cells with a luciferase reporter of 2A StopGo recoding; control for the full effect not named in the record. 1.2% of 410,000 active; active = well fitted falling curve with a large enough effect; inconclusive = small, poorly fitted or top-dose-only effect; inactive = no such curve, though single readings can be large or run the other way; tested in HEK293T cells; further: on the % scale 0 is the no-effect control and ±100 the full control effect; nearly all actives have a fitted effect of over 45% in size; luciferase light after 4 h
Marburg entry inh – blocks Marburg virus binding to or entry into cells | Marburg virus pseudotyped entry inhibition, cell reporter; control for the full effect not named in the record; about a third of the inactives were read at about 46 µM | Potency, µM (doses to about 37.8 µM), for inactives: at the highest dose activity change, negative = inhibition, actives largely listed as inhibitors | 1.8% of 300,000 active | AID 540276; active = well fitted inhibition curve with a large enough effect; inconclusive = small, poorly fitted or top-dose-only effect, or effect the other way; inactive = flat fitted curve, though single readings scatter; tested in HEK293 cells; about a fifth of its hits are not listed in these tables; further: on the % scale 0 is the no-effect control and ±100 the full control effect; luciferase read-out
Active calls of the source: *; u = inconclusive; x = not tested or not shown; [ ] = remark or other dose. Unless noted, the call rests on the fitted dose curve; in most records, active means well fitted rising curve with a large enough effect; inconclusive means small, poorly fitted or top-dose-only effect; inactive means no such curve, though single readings can be large or run the other way. Potency means the concentration at half of the fitted maximal effect. Outcome played no part in choosing rows; about 4.7% have a hit in one of these screens.

No. | compound | RE007 growth inh | Marburg entry inh | Cruzain noTriton | StopGo reporter | Lassa entry inh | SARS PLP yeast | Cruzain Triton | NS1 inh
1 | CCOc1ccc(NS(=O)(=O)c2ccc3ncsc3c2)cc1 | 0% | -21%[46.1 µM] | x | 10% | -3%[46.1 µM] | 0% | x | -6%
2 | Nc1cccc2c3c(oc12)CCCC3 | 0% | x | x | 18% | x | -10% | x | -13%
3 | CCn1c(SCC(=O)OC)nnc1-c1c[nH]c2ccccc12 | 12% | 8%[46.1 µM] | x | -16% | 5%[46.1 µM] | 0% | x | -2%
4 | Cc1ccccc1NC(=O)CSc1nc(-c2ccccc2)cc(=O)[nH]1 | 18% | x | x | -8% | x | 5% | x | 7%
5 | O=C(N/N=C/c1cc2cc3c(cc2nc1Cl)OCO3)c1ccncc1 | -17% | x | x | -21% | x | 2% | x | 13%
6 | CCOC(=O)c1c(NC(=O)CN2CCN(C(=O)C3CCCO3)CC2)sc(C)c1C (configuration not stated) | -2% | -9% | x | -19% | u | x | x | 11%
7 | N#Cc1ccc(CSc2nnc(NC(=O)c3ccc(=O)[nH]c3)s2)cc1 | 17% | -2%[46.1 µM] | x | -11% | -19% | 1% | x | 2%
8 | Cc1ccc(N=C2CSC(=O)N2)cc1 | 4% | u | x | -8% | 4%[46.1 µM] | 1% | x | x
9 | Cc1cc(C(=O)NP(=O)(N2CCOCC2)N2CCOCC2)c(C)n1-c1ccc(N(C)C)cc1 | 10% | u | 2% | 0% | -4%[46.1 µM] | 19% | -0.5% | -10%
10 | COc1ccc(S(=O)(=O)NCC2CCCO2)cc1Cl (configuration not stated) | 1% | x | x | 54%[activator] | x | 0% | x | -3%
11 | Cc1cc(C)c(OCC(=O)N(Cc2ccccc2)C2CCS(=O)(=O)C2)c(C)c1 (configuration not stated) | -21% | 1%[46.1 µM] | x | -17% | 13% | 1% | x | 1%
12 | COC(=O)c1sc(NC(=S)NC(=O)c2ccccc2Cl)nc1C | -6% | u | 10% | 45%[activator] | u | 12% | 2.7% | 14%
13 | CCOC(=S)SCc1cn2cccc(C)c2n1 | -15% | 3%[46.1 µM] | x | 12% | 9%[46.1 µM] | 0% | x | x
14 | Cn1nnc(NC(=S)NC(=O)c2cccs2)n1 | -4% | u | -8% | -3% | -6% | 10% | -4.4% | 16%
15 | CCCc1nc2sc3ccccc3c(=O)c2c(=O)n1Cc1ccccc1 | 7% | 5%[46.1 µM] | x | 10% | 2% | x | x | x
16 | Cc1c(F)cccc1NS(=O)(=O)c1cccs1 | x | x | -3% | 6% | 11%[46.1 µM] | x | -1.2% | x
17 | CCN(c1ccc(NC(=O)COC(=O)c2ccc(S(=O)(=O)N3CCCC3)cc2)cc1)C(C)C | -13% | 1% | -3% | -25% | 8% | -2% | 1.0% | 6%
18 | COc1ccc(CNC(=O)CN(Cc2ccccc2OC)C(=O)c2csnn2)cc1 | -9% | 10%[46.1 µM] | x | -10% | -13% | 1% | x | -5%
19 | c1ccc(-c2cnc(C3CCCCC3)o2)cc1 | -27% | u | x | 19% | 9%[46.1 µM] | x | x | x
20 | Cc1cccc(N2CCN(C(=O)c3cc4c(=O)[nH]c5ccc(C)cc5c4s3)CC2C)c1 (configuration not stated) | x | u | -9% | u | x | x | 2.0% | x
21 | O=C(NCc1cccnc1)Nc1ccc([N+](=O)[O-])cc1 | -3% | x | x | -10% | x | -6% | x | 13%
22 | O=c1[nH]c(N2CCN(c3ccccc3)CC2)nc2c1CCCC2 | 1% | 1% | u | -21% | 2% | -4% | 4.7% | 4%
23 | COc1ccc(-n2nc(C(=O)NCC(=O)N3CCCCCC3)c3ccccc3c2=O)cc1 | -1% | -21%[46.1 µM] | x | 20% | x | -5% | x | 12%
24 | Cc1cccc(C(=O)NCC(c2ccco2)N(C)C)c1 (configuration not stated) | 8% | u | x | 4% | 16%[46.1 µM] | 0% | x | x
25 | COc1ccccc1NC(=O)C1CCN(C(=O)c2sc3nc[nH]c(=O)c3c2C)CC1 | x | x | u | -12% | 9%[46.1 µM] | x | -0.9% | x
26 | COc1ccc(N=C2NC(=O)/C(=C\C=C\c3ccccc3)S2)cc1 | -19% | -2%[46.1 µM] | x | -5% | u | 1% | x | 3%
27 | O=C(Nc1nc2c(s1)CCCCCC2)Nc1ccc(F)cc1F | x | x | 19% | 47%[activator] | u | x | -0.2% | x
28 | COc1ccc(S(=O)(=O)N2CCN(c3ccc4nnc(-c5ccc(F)cc5)n4n3)CC2)cc1 | 15% | x | u | u | x | 0% | -5.3% | 0%
29 | CC(C)(Oc1ccc(Cl)cc1)C(=O)Nc1nc2ccc(S(C)(=O)=O)cc2s1 | x | -13%[46.1 µM] | 5% | -18% | 18%[46.1 µM] | x | -8.4% | x
30 | O=C(Nc1ccc([N+](=O)[O-])cc1)C1C(c2ccccc2)=C1c1ccccc1 | -4% | -1% | u | 4% | -5% | -5% | 2.3% | 10%
31 | O=c1c([N+](=O)[O-])cc(C(F)(F)F)cn1Cc1c(Cl)cccc1Cl | 8% | 9% | -1% | -11% | 4% | 6% | -1.8% | u
32 | COc1ccc(N2CCN(Cc3nc(-c4ccccc4)no3)CC2)cc1 | -20% | 11%[46.1 µM] | x | -13% | -8% | 0% | x | 0%
33 | CC(C)c1ccc(NC(=O)c2ccccc2NC(=O)C2CC=CCC2C(=O)O)cc1 (configuration not stated) | -11% | 19%[46.1 µM] | x | 1% | 9%[46.1 µM] | 2% | x | u
34 | CCOC(=O)c1cccc(NC(=O)CCc2c(C)nn(-c3ccc(N4CCCC4)nn3)c2C)c1 | x | x | -2% | 2% | 5%[46.1 µM] | x | -3.6% | x
35 | CCCCNC(=O)C1CCCN1C(=O)Nc1cccc(OC)c1 (configuration not stated) | 8% | 27%[46.1 µM] | 1% | 15% | -10% | -3% | 4.6% | u
36 | Clc1ccccc1CSc1nc2ccncc2[nH]1 | -26% | 2% | 11% | 8% | x | -9% | 0.8% | -4%
37 | COc1cccc2c1cc1c(=O)n(CC(=O)N3CCCC3)nc(C)n12 | 5% | 5%[46.1 µM] | x | 2% | -10% | x | x | x
38 | Cc1cccc(NC(=O)C(C)SCc2nc3sc(C)c(C)c3c(=O)[nH]2)n1 (configuration not stated) | 5% | 3% | x | -8% | 12% | 0% | x | -4%
39 | N#C/C(=C/c1ccc(O)cc1)c1nc(-c2ccc(-c3ccccc3)cc2)cs1 | x | x | 10% | -17% | -18%[46.1 µM] | x | 0.3% | x
40 | CN(C)c1ccc2c(O)cc(=O)n(C)c2c1 | -8% | u | -25% | 5% | 7% | -5% | -8.2% | u
41 | O=C(NNC(=O)c1cnccc1C(F)(F)F)c1ccccc1 | 4% | 17% | x | 10% | u | 0% | x | -2%
42 | Cc1ccc(NC2=NCC(=O)N2CCc2ccccc2)cc1C | -4% | -18%[46.1 µM] | -3% | -12% | 3% | 2% | 2.0% | 5%
43 | CCOC(=O)c1cnn(-c2nc3c(C)cccc3s2)c1C | 6% | -2% | -3% | 35%[activator] | 3% | -5% | 3.8% | 5%
44 | C/C(=N\Nc1ccc(S(N)(=O)=O)cc1[N+](=O)[O-])c1ccco1 | 4% | -3% | x | -3% | -9% | 0% | x | -47%
45 | CN1[C@@H]2CC[C@H]1CC(OC1c3ccccc3CCc3ccccc31)C2 (some centres not stated) | 3%[18.4 µM] | x | -6% | u | x | x | -3.8% | x
46 | COCCNC(=O)c1cc2sccc2n1C | 8% | x | x | -9% | x | -2% | x | 5%
47 | O=C(N/N=C/c1ccccc1)c1ccc(N2CCOCC2)c([N+](=O)[O-])c1 | 9% | 5% | -5% | -7% | 3% | 21% | -11% | u
48 | CC1CC(C)CN(C(=O)COC(=O)c2cccc([N+](=O)[O-])c2)C1 (configuration not stated) | 14% | 29%[46.1 µM] | x | 1% | 23%[46.1 µM] | 1% | x | x
49 | COc1ccc(NC(=O)CN2CCN(c3ccccc3F)CC2)cc1 | 8% | u | -2% | 7% | u | 0% | 2.4% | -6%
50 | CCOc1ccc(N(CC)C(=O)c2noc3c2COc2ccc(C)cc2-3)cc1 | x | x | -5% | -9% | 24%[46.1 µM] | x | -1.4% | x
51 | COc1ccc(CCNC(=O)NC(C(F)(F)F)C(F)(F)F)cc1OC | -5% | 6% | -2% | -19% | -3% | 2% | 1.0% | 4%
52 | CCOc1ccc(NC(=O)COC(=O)COc2cccc3c2OC(C)(C)C3)cc1 | 13% | 7% | x | -17% | -39% | -3% | x | -34%
53 | COC(=O)c1c(NC(C)=O)sc2c1CCN(Cc1ccccc1)C2 | 0% | x | x | -28% | x | -3% | x | 6%
54 | COC(=O)C1=C(C)Nc2nnnn2C1c1cc(OC)ccc1OC (configuration not stated) | -3% | 3% | -5% | x | 7% | -1% | 4.6% | 2%
55 | CC1CN(c2nc3c(c(=O)n(Cc4ccc(Cl)cc4)c(=O)n3C)n2C)CC(C)O1 (configuration not stated) | 17% | u | u | u | -16% | 3% | -1.1% | -32%
56 | COc1cc(NC(=O)c2n[nH]c(=O)c3ccccc23)cc(OC)c1 | 26% | x | x | -14% | x | -1% | x | 6%
57 | C/C(=N\NC(=O)c1ccccc1)c1ccc(N2CCCCC2)cc1 | -1% | 17% | u | 33%[activator] | -1% | 4% | 0.1% | 5%
58 | Cc1ccc(/C(=N/Nc2ncnc3ccccc23)C(=O)O)cc1 | -7% | -25%[46.1 µM] | x | 50%[activator] | -2% | -16% | x | 24%
59 | O=C(c1ccccc1)N1CCN(S(=O)(=O)N2CCOCC2)CC1 | -9% | -4%[46.1 µM] | x | -12% | -11% | 0% | x | x

Entries of single compounds from above. Order of screens: RE007 growth inh, Marburg entry inh, Cruzain noTriton, StopGo reporter, Lassa entry inh, SARS PLP yeast, Cruzain Triton, NS1 inh
Shown for `O=C(NNC(=O)c1cnccc1C(F)(F)F)c1ccccc1` = 4%, 17%, x, 10%, u, 0%, x, -2%
Shown for `COC(=O)c1c(NC(C)=O)sc2c1CCN(Cc1ccccc1)C2` = 0%, x, x, -28%, x, -3%, x, 6%

Screening data deposited in PubChem BioAssay by National Center for Advancing Translational Sciences (NCATS).
